Vif A3G: HIV-1 Vif–A3G interaction blockers – biochemical, TR-FRET, GST-Vif 1-94, biotin-A3G peptide, dose response retest, primary screen (AID 1117319); inhibition, %, or IC50 in µM where a hit was titrated; 0.57% of 260,000 active; TR-FRET GST-Vif / biotin-A3G peptide binding; higher % means a stronger effect; test concentration not given here; strong numbers were not always called active;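 active = above the screen mean plus three standard deviations and confirmed in dose response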;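 also: Vif residues 1-94 fused to GST binding biotinylated APOBEC3G peptide 110-148; 0% = full assay without inhibitor and 100% = GST in place of GST-Vif; retest series ran down from 100 µM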
B2AR ag: human beta-2 adrenergic receptor agonism by FAP. P07550. Am2.2-beta2AR cells, FAP receptor internalization, flow cytometry; reference of the scale not given here. response, % (no concentration beside the values). 0.43% of 340,000 active. AID 504454;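 active = response above a set limit, near 3 SD of response in nonfluorescent compounds, cut at about 42% in these data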;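 also: stock transfer was 100 nL into about 11 µL; a reference agonist was the positive control; negative values mostly stem from fluorescent compounds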
Target sequence (P07550 whole entry, looked up): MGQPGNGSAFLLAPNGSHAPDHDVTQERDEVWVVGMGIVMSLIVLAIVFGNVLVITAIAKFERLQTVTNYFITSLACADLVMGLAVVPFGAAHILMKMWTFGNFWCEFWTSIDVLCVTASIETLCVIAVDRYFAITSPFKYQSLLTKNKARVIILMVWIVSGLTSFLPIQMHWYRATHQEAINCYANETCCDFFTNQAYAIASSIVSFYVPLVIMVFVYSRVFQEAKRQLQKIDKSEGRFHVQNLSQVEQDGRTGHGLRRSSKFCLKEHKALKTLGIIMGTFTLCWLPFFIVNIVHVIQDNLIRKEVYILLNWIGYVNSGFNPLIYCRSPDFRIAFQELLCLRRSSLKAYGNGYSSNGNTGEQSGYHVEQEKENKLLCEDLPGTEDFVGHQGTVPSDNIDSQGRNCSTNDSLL
Bfl-1 A1 inh: inhibitors of the anti-apoptotic protein A1, read as caspase activation | MEF A1-2A-BIM cells, Caspase-Glo 3/7 luminescence, 3 h; percent of clofoctol response, vehicle zero | caspase activation, % (no concentration beside the values) | 0.066% of 330,000 active | AID 2462;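 active = over half of replicate activation scores above 10%, or exactly half above 10 with the replicate mean above 10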;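 also: wells of about 30 µL received 50 nL stock; many hits fall short of the cut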
HNF4A DNA FP: change in binding of human HNF4 alpha to DNA; AID 1224865; activity change, % at 10 µM; P41235; HNF4a-FITC DNA binding, fluorescence polarization, 1 h; 0.3% of 360,000 active; in the data active = activity change above about 30%, passing the limit was not always enough;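 also: controls were the assay level and a saturating level of protein; the project sought stronger binding though the title names inhibitors; some compounds called inactive have numbers as strong as hits; positive values seem to mean higher polarization but the record does not say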
Target sequence (P41235 whole entry, looked up): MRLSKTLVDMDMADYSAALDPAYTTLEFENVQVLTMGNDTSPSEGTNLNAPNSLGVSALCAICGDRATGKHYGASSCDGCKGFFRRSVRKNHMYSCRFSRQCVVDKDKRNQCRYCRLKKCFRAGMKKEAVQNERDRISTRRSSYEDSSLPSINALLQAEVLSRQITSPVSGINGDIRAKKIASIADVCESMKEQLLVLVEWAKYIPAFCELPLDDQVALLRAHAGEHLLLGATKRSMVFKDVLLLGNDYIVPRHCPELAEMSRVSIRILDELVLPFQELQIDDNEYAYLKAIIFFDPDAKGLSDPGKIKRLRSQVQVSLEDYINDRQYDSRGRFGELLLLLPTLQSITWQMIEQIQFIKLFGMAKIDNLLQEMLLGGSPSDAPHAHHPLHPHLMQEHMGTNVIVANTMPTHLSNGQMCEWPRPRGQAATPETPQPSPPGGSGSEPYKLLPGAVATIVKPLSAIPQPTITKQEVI
E coli growth: blocks Escherichia coli growth; OD600 absorbance (no concentration beside the values); OD600, 23 h; hits give low values; 0.21% of 330,000 active;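 active = OD600 absorbance below the run mean of sample wells minus 3.6 SD, in any replicate, cut at about 0.56 in these data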;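 also: stock transfer was 300 nL into about 60 µL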
UCH37 inh: blocks the human deubiquitinase UCH37; purified proteasome/UCH37, Ub-AMC cleavage fluorescence; AID 588478; 0.33% of 330,000 active; inhibition, % (no concentration beside the values);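 active = mean of two replicates above 20%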;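 also: 0% = compound-free wells with enzyme and 100% = wells lacking proteasome; stock transfer was 100 nL into about 20 µL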
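Signal – fluorescence, ex 355 nm, em 460 nm · System – Proteasome-bound UCH37 · Input – 0.15 nM proteasome as dispensed · Timing – 30 min preincubation with enzyme, 25 min cleavage at room temperature · Read-out basis – percent inhibition of cleavage signal versus uninhibited and no-proteasome wells · Medium – Tris-HCl pH 7.4 with ATP-MgCl2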
LANA-H2B inh: blocks KSHV LANA binding to histone H2A/H2B. Q9QR71. cell-free LANA-H2A/H2B peptide, fluorescence polarization. inhibition, % (test concentration not listed). 0.6% of 320,000 active; in the data active = inhibition mostly above about 10%, no sharp cut-off; inactive = mostly below about 6.7%;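 also: stock transfer was 7.5 nL into about 10 µL; 0% = median of vehicle wells and 100% = median of positive control wells; one replicate is shown; the record names a cut of 25% in any replicate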
An asterisk follows results filed as active; & = joins results of further samples.

Screening CCOC(=O)c1sc(N)c(C#N)c1CSc1nnc(C2CCCCC2)n1N returned Vif A3G 4%, B2AR ag -5, Bfl-1 A1 inh 0.0, HNF4A DNA FP 5.0, E coli growth 0.7, UCH37 inh 8.6 and LANA-H2B inh -2.9.
Screening Cc1nn(-c2ccccc2)c(C)c1C(=O)OCC(=O)N(C)c1ccccc1 returned Vif A3G 3%, B2AR ag -6, Bfl-1 A1 inh 0.1, HNF4A DNA FP 0.9, E coli growth 0.66, UCH37 inh 3.5 and LANA-H2B inh 1.9.
`O=C(C(Sc1ccccc1)c1ccccc1)N1CCN(c2ccccc2F)CC1` (stereo not drawn) gave Vif A3G -3%, B2AR ag 5, Bfl-1 A1 inh 1.4, HNF4A DNA FP -1.8, E coli growth 0.77, UCH37 inh -1.6 and LANA-H2B inh 0.3.
Screening COC/C=C/C1=CC2=CC(=O)C(C)(OC(=O)c3cnc4ccccc4n3)C(=O)C2=CN1Cc1ccco1 (stereo not drawn) returned B2AR ag -4, Bfl-1 A1 inh -0.9, HNF4A DNA FP 1.3, UCH37 inh 2.8 and LANA-H2B inh -2.2.
`Cc1ccc2c(CN3CCN(S(=O)(=O)c4ccccc4C(F)(F)F)CC3)cc(=O)oc2c1C` gave B2AR ag 8, Bfl-1 A1 inh 0.5, HNF4A DNA FP 0.6, E coli growth 0.67, UCH37 inh 2.4 and LANA-H2B inh 1.1.
Screening Cc1ccc(-c2nc(NC(=O)CSc3nnc4scc(-c5ccccc5)n34)ns2)cc1 returned Vif A3G -12%, B2AR ag -3, Bfl-1 A1 inh -0.9, HNF4A DNA FP -3.2, E coli growth 0.76, UCH37 inh 1.3 and LANA-H2B inh 0.0.
Screening CC1(C)CC(=O)c2sc(NS(=O)(=O)c3ccc([N+](=O)[O-])cc3)nc2C1 returned B2AR ag -2, Bfl-1 A1 inh 2.6, HNF4A DNA FP 0.8, E coli growth 0.69, UCH37 inh 12 and LANA-H2B inh 1.6.
`CC(=O)NNc1ncnc2c1cnn2-c1ccc(C)c(Cl)c1` gave Vif A3G 13%, B2AR ag -2, Bfl-1 A1 inh 0.5, HNF4A DNA FP 8.0, E coli growth 0.69, UCH37 inh -0.1 and LANA-H2B inh 2.1.
Screening O=C(/C=C/c1ccc(Cl)cc1Cl)Nc1ccncc1 returned Vif A3G 2%, B2AR ag -1, Bfl-1 A1 inh -2.5, HNF4A DNA FP 5.5, E coli growth 0.64, UCH37 inh 4.9 and LANA-H2B inh 0.0.
`Cc1ccc(NC(=O)CCNC(=O)c2ccc(Cl)cc2)nc1` gave B2AR ag 1, Bfl-1 A1 inh -0.4, HNF4A DNA FP 2.7, E coli growth 0.64, UCH37 inh -1.0 and LANA-H2B inh -4.7.
For COc1ccc(CCNC(=O)CN(Cc2ccc(Cl)cc2)S(C)(=O)=O)cc1OC the results were B2AR ag 7, Bfl-1 A1 inh 0.3, HNF4A DNA FP -3.9, E coli growth 0.7, UCH37 inh 4.0 and LANA-H2B inh 1.5.
`O=C(N/N=C/c1ccc2ncccc2c1)c1ccco1` gave B2AR ag -1, Bfl-1 A1 inh -8.3, HNF4A DNA FP 2.3 and LANA-H2B inh 3.4.
For COc1cccc(/C=C/C(=O)OCC(=O)N2CCN(S(=O)(=O)c3ccc(Cl)cc3)CC2)c1 the results were B2AR ag 0, Bfl-1 A1 inh -1.5, HNF4A DNA FP 1.8, E coli growth 0.71, UCH37 inh -5.4 and LANA-H2B inh -2.0.
Screening Cc1cc(C)c(-n2c(SCCS(=O)(=O)c3ccc(F)cc3)n[nH]c2=O)c(C)c1 returned Vif A3G 2%, B2AR ag -3, Bfl-1 A1 inh 1.7, HNF4A DNA FP 5.5, E coli growth 0.65, UCH37 inh 1.8 and LANA-H2B inh -1.6.
`O=C(NCCc1csc(-c2cccnc2)n1)c1cccc2ccccc12` gave Vif A3G -2%, B2AR ag -8, Bfl-1 A1 inh 0.1, HNF4A DNA FP 1.5, E coli growth 0.67, UCH37 inh 3.4 and LANA-H2B inh 2.4.
`COC(=O)C1=C(C)N(Cc2ccccc2)C(=NCCN2CCOCC2)N[C@H]1CCc1ccccc1` gave B2AR ag 0, Bfl-1 A1 inh 1.1, HNF4A DNA FP 0.9, UCH37 inh -4.8 and LANA-H2B inh -0.3.
For S=c1sc2c(N3CCN(Cc4ccccc4)CC3)ncnc2n1-c1ccccc1 the results were Vif A3G -3%, B2AR ag 4, Bfl-1 A1 inh -0.2, HNF4A DNA FP 0.3, E coli growth 0.77, UCH37 inh 2.5 and LANA-H2B inh 3.6.
CCn1c(O)c(/C=N/N=C/c2ccc(OC)cc2)c2cc(C3=NNC(=O)CC3)ccc21 was read as Vif A3G 1%, B2AR ag 11, Bfl-1 A1 inh 0.8, HNF4A DNA FP 95* and LANA-H2B inh 5.4.
For CC1CCN(c2ccc3nnc(CCC(=O)N4CCCCC4)n3n2)CC1 the results were Vif A3G -6%, B2AR ag -4, Bfl-1 A1 inh -2.3, HNF4A DNA FP 2.9, E coli growth 0.67, UCH37 inh 3.0 and LANA-H2B inh 4.8.
Screening CCOC(=O)N1CCC(Nc2c(N3CCN(c4cccc(C(F)(F)F)c4)CC3)c(=O)c2=O)CC1 returned Vif A3G 5%&4%, B2AR ag -18, HNF4A DNA FP 0.7, E coli growth 0.74 and UCH37 inh 7.2.
`Cc1ccc(C(=O)CC2(O)C(=O)N(C)c3ccc(Br)cc32)c(C)c1` (stereo not drawn) gave Vif A3G -7%, B2AR ag -6, Bfl-1 A1 inh 0.0, HNF4A DNA FP 0.2, E coli growth 0.73, UCH37 inh 6.4 and LANA-H2B inh -3.8.
Screening Cc1cccc2cc(C#N)c(SCc3nnc(-c4ccccc4[N+](=O)[O-])o3)nc12 returned B2AR ag -10, Bfl-1 A1 inh 0.9, HNF4A DNA FP 0.2, E coli growth 0.73, UCH37 inh 4.4 and LANA-H2B inh -6.1.
COC(=O)c1c(NC(=S)Nc2ccc(C(=O)N3CCOCC3)cc2)sc2c1CCC2 was read as Vif A3G -32%, B2AR ag 12, Bfl-1 A1 inh 0.7, HNF4A DNA FP 0.0, E coli growth 0.71, UCH37 inh 6.3 and LANA-H2B inh -2.2.
For O=C(CN1C(=O)CCSc2ccc(S(=O)(=O)N3CCOCC3)cc21)Nc1cccc(F)c1 the results were Vif A3G -4%, B2AR ag 0, Bfl-1 A1 inh 0.1, HNF4A DNA FP 7.9, E coli growth 0.69, UCH37 inh -1.7 and LANA-H2B inh -4.5.
Cc1oc2cc3oc(=O)c(CC(=O)O)c(C)c3cc2c1-c1ccccc1 was read as Vif A3G -4%, B2AR ag 3, Bfl-1 A1 inh -0.1, HNF4A DNA FP -2.5, E coli growth 0.63, UCH37 inh -6.3 and LANA-H2B inh 4.5.
COc1ccc(CC(NC(C)=O)C(=O)NC2CCN(S(=O)(=O)c3ccc(NC(C)=O)cc3)CC2)cc1OC (stereo not drawn) was read as Vif A3G -4%, B2AR ag 2, Bfl-1 A1 inh 0.6, HNF4A DNA FP 2.6, E coli growth 0.75, UCH37 inh 0.3 and LANA-H2B inh -0.4.
CC(C)[C@H](NC(=O)OCc1ccccc1)C(=O)OCC(=O)N1CCN(c2ccc(F)cc2)CC1 was read as Vif A3G -1%, B2AR ag 4, Bfl-1 A1 inh -0.9, HNF4A DNA FP -2.5, E coli growth 0.67, UCH37 inh 0.3 and LANA-H2B inh -0.9.
For CCN(CC)CCN1C(=O)c2ccccc2NC1c1ccc(C)cc1 (stereo not drawn) the results were Vif A3G 0%, B2AR ag -5, Bfl-1 A1 inh 1.8, HNF4A DNA FP -2.8, E coli growth 0.67, UCH37 inh -462 and LANA-H2B inh -2.1.
For Cc1cccc(N2CCN(CC(=O)NCc3ccc(Cl)cc3)CC2)c1C the results were B2AR ag 8, Bfl-1 A1 inh 1.2, HNF4A DNA FP 1.1, E coli growth 0.65, UCH37 inh 1.5 and LANA-H2B inh 3.2.
For Cc1ccc(NC(=O)C2CC(=O)N(Cc3ccccc3)C2)nc1 (stereo not drawn) the results were B2AR ag 5, Bfl-1 A1 inh 0.4, HNF4A DNA FP 0.5 and LANA-H2B inh 2.5.

The last 2 entries of the part above are carried over, then new ones follow:
For Cc1cccc(N2CCN(CC(=O)NCc3ccc(Cl)cc3)CC2)c1C the results were B2AR ag 8, Bfl-1 A1 inh 1.2, HNF4A DNA FP 1.1, E coli growth 0.65, UCH37 inh 1.5 and LANA-H2B inh 3.2.
For Cc1ccc(NC(=O)C2CC(=O)N(Cc3ccccc3)C2)nc1 (stereo not drawn) the results were B2AR ag 5, Bfl-1 A1 inh 0.4, HNF4A DNA FP 0.5 and LANA-H2B inh 2.5.
Screening O=c1nc(/C=C/c2ccc(O)c(O)c2)oc2ccccc12 returned Vif A3G 13%, B2AR ag 3, HNF4A DNA FP -2.1, E coli growth 0.6 and UCH37 inh 12.
COc1cccc(CNC(=O)CN2C(=O)COc3ccc(S(=O)(=O)N4CCCC4)cc32)c1 was read as B2AR ag 0, Bfl-1 A1 inh 0.6, HNF4A DNA FP 4.1, E coli growth 0.7, UCH37 inh 5.1 and LANA-H2B inh 1.1.
For Cc1c(Nc2scc(-c3ccccc3)[n+]2-c2ccccc2)c(=O)n(-c2ccccc2)n1C the results were Vif A3G 17%, B2AR ag 2, Bfl-1 A1 inh 0.3, HNF4A DNA FP 1.6, E coli growth 0.71, UCH37 inh 5.0 and LANA-H2B inh -2.0.
For O=C(CCNC(=O)c1ccc([N+](=O)[O-])cc1)NCCCN1CCCC1=O the results were Vif A3G 7%, B2AR ag 0, Bfl-1 A1 inh 0.6, HNF4A DNA FP -2.1, E coli growth 0.69, UCH37 inh 1.4 and LANA-H2B inh 1.2.
Screening CCOC(=O)N1CCN(CC(O)COC(CC)c2ccccc2)CC1 (stereo not drawn) returned Vif A3G 17%, B2AR ag 3, Bfl-1 A1 inh 0.1, HNF4A DNA FP 0.2, E coli growth 0.7, UCH37 inh 1.5 and LANA-H2B inh -1.2.
Screening O=C(O)CCCc1ccc2c(c1)CCc1ccccc1-2 returned B2AR ag 0, Bfl-1 A1 inh -1.6, HNF4A DNA FP -1.1, UCH37 inh 2.5 and LANA-H2B inh -1.6.
O=C(O)c1cc2nc3c(c(C(F)(F)F)n2n1)CCCC3 was read as Vif A3G -1%, B2AR ag 1, Bfl-1 A1 inh -0.5, HNF4A DNA FP -3.4, E coli growth 0.66, UCH37 inh -0.1 and LANA-H2B inh -3.7.
`O=C(CN1C(=O)S/C(=C/c2ccncc2)C1=O)Nc1ccccc1` gave Vif A3G 4%, B2AR ag -7, Bfl-1 A1 inh -2.6, HNF4A DNA FP 3.0, E coli growth 0.73, UCH37 inh 3.7 and LANA-H2B inh 6.8.
CNC(=O)Cn1ncc2c(C)n(Cc3ccc(C)cc3)c(C)c2c1=O was read as Vif A3G 19%, B2AR ag 1, Bfl-1 A1 inh -0.1, HNF4A DNA FP -3.0, E coli growth 0.64, UCH37 inh 4.6 and LANA-H2B inh 2.7.
`CS(=O)(=O)N1CC2CCCN2c2ccc(C(F)(F)F)cc21` (stereo not drawn) gave Vif A3G 0%, B2AR ag 0, Bfl-1 A1 inh -0.4, HNF4A DNA FP 1.9, E coli growth 0.69, UCH37 inh 5.0 and LANA-H2B inh -5.1.
`O=C(CSCc1ccccc1)N1CCN(c2ccccc2)CC1` gave Vif A3G -3%, B2AR ag 3, Bfl-1 A1 inh 0.8, HNF4A DNA FP -3.4, E coli growth 0.72, UCH37 inh 0.2 and LANA-H2B inh 2.4.
For COc1cc(OC)c(NC(=S)NCc2ccc(F)cc2)cc1Cl the results were Vif A3G 4%, B2AR ag -7, Bfl-1 A1 inh -0.1, HNF4A DNA FP 1.2, E coli growth 0.66, UCH37 inh -2.5 and LANA-H2B inh -0.5.

Compounds as they come; overall some 2.1% were active at least once.
